Source: PubChem (several laboratories)
UUG fidelity: alters start codon recognition fidelity in yeast | activity score, % at 18.7 µM | S. cerevisiae UUG-firefly luciferase reporter, luminescence/redox ratio | AID 602363 | 350,000 tested, 0.13% active;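 active = replicate mean at a twofold rise or more, about +100% in these data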;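 note: firefly luciferase made from a UUG start codon reports start codon fidelity; reporter light over untreated wells divided by growth signal over untreated wells; some hits fall short of that in this replicate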
Env fusion inh: HIV envelope-mediated fusion inhibition. HeLa-JRFL Env/CEM21 cell fusion, luciferase. inhibition, % at 12.3 µM. 360,000 tested, 1.1% active. AID 651610;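 active = mean replicate inhibition score of at least 50 and every replicate individually at or above 50; inconclusive = only one of the two criteria met; inactive = mean below 50 and not all replicates reaching 50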;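 note: 0% = plate neutral controls and 100% = maraviroc near 300 nM; one replicate is shown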
MT1-MMP act inh: blocks activation of human MT1-MMP | AID 651647 | P50281 | HT1080 RFP-PRO-GFP cells, GFP/RFP ratio fluorescence, overnight; percent of plate control window, DMSO zero | 360,000 tested, 0.061% active | GFP/RFP ratio change, % at 20 µM;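 active = GFP/RFP ratio change of at least 30% with cell ATP level not reduced by more than half and red fluorescence within 50% of control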; note: strong numbers were not always called active
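Assay system: HT1080 RFP-PRO-GFP cells. Benchmarks: DMSO vehicle wells and RFP-L50D-GFP reporter cell wells. Times: overnight cell settling, then overnight compound exposure, 37 °C, 5% CO2. Compound: 20 µM single dose, 1% DMSO. Read-out basis: GFP/RFP fluorescence ratio.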
CSC inhib: cancer stem cell inhibition; cancer stem cell-like cells viability, luminescence; inhibition, % at 7.5 µM; 300,000 tested, 1.1% active; AID 2717;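 active = mean at 75% or more and at least half the replicates too; inconclusive = mean and replicates disagree; tested in HMLE shEcad cells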;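 note: 0% = median of negative and 100% = median of positive control wells; the first replicate is given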
Rce1 inh: yeast Ras-converting enzyme inhibition | yeast membranes, quenched prenylated peptide cleavage fluorescence | AID 2563 | 290,000 tested, 0.27% active | Q03530 | calls only;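 active = fall in fluorescence gain of 50% or more versus controls, with final raw signal at or below 3038400; inconclusive = same 50% fall but final raw signal above 3038400; inactive = fall in fluorescence gain under 50%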;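 note: plate controls were neutral control wells for no effect and wells lacking membranes for full effect; tested at 10 µM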
Target sequence (Q03530 whole entry, looked up): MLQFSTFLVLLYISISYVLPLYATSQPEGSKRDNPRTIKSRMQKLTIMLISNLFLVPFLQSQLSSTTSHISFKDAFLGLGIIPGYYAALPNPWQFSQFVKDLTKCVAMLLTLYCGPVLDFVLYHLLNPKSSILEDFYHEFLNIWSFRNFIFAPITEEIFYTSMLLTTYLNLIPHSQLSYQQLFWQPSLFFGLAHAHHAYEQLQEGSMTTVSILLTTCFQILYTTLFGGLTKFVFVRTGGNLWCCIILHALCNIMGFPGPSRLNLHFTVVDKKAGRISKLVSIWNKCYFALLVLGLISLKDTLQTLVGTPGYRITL
eIF4H inh: inhibitors of RNA binding by human eIF4H; eIF4H fluorescence polarization binding assay; inhibition, % at 35 µM; 290,000 tested, 0.94% active; AID 2012;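 active = 50% or more with normal probe brightness, or confirmed in later tests; inconclusive = above 50% with abnormal brightness, or retests that disagree; inactive = below 50% or failed in later tests; about a fifth of its hits are not listed in these tables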;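 note: calls also rest on retests at 20 µM and on dose response follow-up; 0% = protein and probe with vehicle and 100% = probe without protein; strong numbers were not always called active; many hits fall short of the cut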
PABP polyA inh: PABP-poly(A) binding inhibition; PABP-poly(A) RNA binding, fluorescence polarization; inhibition, % at 35 µM; 290,000 tested, 1% active; AID 2014;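 active = 50% or more with normal probe brightness, or confirmed in later tests; inconclusive = above 50% with abnormal brightness, or retests that disagree; inactive = below 50% or failed in later tests; about a fifth of its hits are not listed in these tables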;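 note: calls also rest on retests at 20 µM and on dose response follow-up; controls were probe without protein and protein plus probe with vehicle; some compounds called inactive have numbers as strong as hits; many hits fall short of the cut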
Target sequence (P11940 whole entry, looked up): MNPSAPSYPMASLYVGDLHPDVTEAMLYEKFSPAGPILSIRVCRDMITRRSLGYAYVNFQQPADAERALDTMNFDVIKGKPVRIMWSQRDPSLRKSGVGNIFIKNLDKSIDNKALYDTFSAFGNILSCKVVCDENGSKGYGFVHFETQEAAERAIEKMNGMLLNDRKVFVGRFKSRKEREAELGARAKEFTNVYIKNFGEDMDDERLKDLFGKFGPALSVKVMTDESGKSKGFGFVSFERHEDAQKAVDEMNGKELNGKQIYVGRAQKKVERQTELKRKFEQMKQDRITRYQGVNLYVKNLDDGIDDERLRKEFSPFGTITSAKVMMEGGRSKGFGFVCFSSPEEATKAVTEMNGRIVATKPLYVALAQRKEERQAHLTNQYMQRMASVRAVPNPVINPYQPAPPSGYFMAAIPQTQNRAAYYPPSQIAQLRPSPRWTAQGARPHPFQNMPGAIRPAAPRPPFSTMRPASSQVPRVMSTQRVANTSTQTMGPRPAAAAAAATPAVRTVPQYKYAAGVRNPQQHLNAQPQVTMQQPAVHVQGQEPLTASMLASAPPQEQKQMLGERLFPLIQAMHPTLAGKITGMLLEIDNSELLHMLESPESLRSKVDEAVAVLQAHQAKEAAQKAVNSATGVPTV
MT1-MMP act inh RFP: second read-out of MT1-MMP act inh, no call of its own (marks repeat the call); RFP signal change, %; measured here: RFP expression control read;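 0 = vehicle wells; hits needed this value within 50% of zero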
An asterisk follows results filed as active; i = inactive; ? = inconclusive; / = not tested or not shown. This is a subset, so the mix of outcomes need not match the whole.

SMILES	UUG fidelity	Env fusion inh	MT1-MMP act inh	MT1-MMP act inh RFP	CSC inhib	Rce1 inh	eIF4H inh	PABP polyA inh
Cc1cccc(NC(=O)[C@H](NC(=O)[C@@H]2Cc3ccccc3CN2)c2ccccc2)c1	-12	1	-7	0	7	i	7	18
COc1ccc(S(=O)(=O)NNC(=O)c2ccccc2-n2cccc2)cc1	-9	9	5	1	-1	i	-1	23
CCN(CC)CCN(C(=O)c1cc(Cl)sc1Cl)c1nc2cc3c(cc2s1)OCO3	4	72*	2	3	-1	i	-12	1
Cc1cc(C(=O)Nc2ccccc2N2CCOCC2)ccc1[N+](=O)[O-]	-10	-74	-2	4	5	i	8	-1
CCCCCCNC(=O)O[C@H]1CN(C(=O)OC(C)C)N(C(=O)OC(C)C)[C@@H]2CN(S(=O)(=O)c3ccc(C)cc3)C[C@]12O	5	3	-19	-14	/	/	/	/
O=C(NCc1ccccc1)C12CN(Cc3ccccc3)CC1C(c1ccc([N+](=O)[O-])cc1)=NO2 (stereo not given)	-13	1	-3	-7	5	i	3	-8
CCCCOCCCN1CC(=O)N2[C@@H](Cc3c([nH]c4ccccc34)C2(C)C)C1=O	13	4	6	-2	-4	i	4	12
Cc1c(C(=O)N2CCN(S(=O)(=O)c3cc(F)ccc3F)CC2)oc2ccccc12	-12	1	-4	-1	/	/	/	/
CCc1ccc(S(=O)(=O)ON2C(=O)c3ccccc3C2=O)cc1	-33	-1	1	2	/	i	-2	3
Cc1nn(C(C)(C)C)c(NC(=O)c2ccccc2)c1C#N	/	-17	/	/	-1	i	0	1
CCC(CC)NC(=O)CC(c1ccccc1)c1ccccc1	-14	5	6	3	11	i	-3	-1
CC(C)(C)[C@H]1CCC(=O)N([C@H](CSc2ccccc2)Cc2ccccc2)CC1	-6	14	-16	-10	139*	i	-1	-3
Cc1nn(C)c(C)c1CN(Cc1nc(-c2cc(F)ccc2F)oc1C)C1CC1	-22	-3	-4	-9	-1	i	-6	-12
Cc1ccccc1NC(=O)NC1(C(=O)N2CCC(O)CC2)CCCCC1	1	3	-1	-1	14	i	6	6
Cc1ccc(S(=O)(=O)N(C)C)cc1NC(=S)Nc1cccc2ccccc12	10	-4	3	5	19	i	5	18
O=C(CCOc1ccccc1)Nc1ccnn1C1CCN(CCc2ccccc2)CC1	-13	6	0	0	5	i	-10	6
COc1ccc(-c2nc3c(c(SCC(=O)N4CCCC4)n2)COC(C)(C)C3)cc1	-3	6	1	-2	-17	i	-8	-2
CCN=c1scc(C)n1/N=C/c1ccsc1	-8	-101	0	-1	-1	i	3	-4
Cc1cc(C)c(NC(=O)CNC(=O)c2ccc3ncsc3c2)c(C)c1	-4	/	-2	-2	11	/	/	/
CCn1c(=O)cc(SCC(=O)N2CCN(C3CCCCC3)CC2)c2ccccc21	-20	-23	5	6	/	i	8	8
COc1ccc(Br)cc1C1CC(=O)C(C)C(c2cc(Br)ccc2OC)N1 (stereo not given)	-17	-29	-1	2	24	i	0	10
O=C(CCc1nnc2ccc(NCc3ccco3)nn12)N1CCCCC1	/	-11	0	5	-16	i	46	12
CCC(=O)N(Cc1c(C)nn(-c2ccccc2)c1Cl)c1ccc(Cl)cc1	6	/	-1	-6	-5	i	1	-16
CNC(=S)N(CCc1c(C)[nH]c2ccc(C)cc12)Cc1ccco1	-11	0	1	5	0	i	0	-2

Shown bar-delimited: part of the list above
SMILES | UUG fidelity | Env fusion inh | MT1-MMP act inh | MT1-MMP act inh RFP | CSC inhib | Rce1 inh | eIF4H inh | PABP polyA inh
O=C(CCOc1ccccc1)Nc1ccnn1C1CCN(CCc2ccccc2)CC1 | -13 | 6 | 0 | 0 | 5 | i | -10 | 6
COc1ccc(-c2nc3c(c(SCC(=O)N4CCCC4)n2)COC(C)(C)C3)cc1 | -3 | 6 | 1 | -2 | -17 | i | -8 | -2

Other structures
SMILES	UUG fidelity	Env fusion inh	MT1-MMP act inh	MT1-MMP act inh RFP	CSC inhib	Rce1 inh	eIF4H inh	PABP polyA inh
CCOc1ccc(-c2c(C(=O)N/N=C/c3ccc(OC(C)C)cc3)nnn2-c2nonc2N)cc1	16	-2	-2	1	9	i	2	3
CCc1cc(=O)oc2c3c(cc(OCC(=O)NC4CC4)c12)OC(C)(C)CC3	2	/	7	3	-10	/	-3	-6
N#Cc1ccc(-c2cccnc2)nc1SCC(=O)c1ccccc1	-11	-35	-136	-3	43	i	1	3
O=S(=O)(c1ccc(Br)cc1)N1CCN(c2cc(-c3ccccc3)nc3ncnn23)CC1	-27	/	-1	-5	-22	i	-10	-6
O=C(CSc1nnnn1-c1ccc2c(c1)CCC2)Nc1ccc2c(c1)OCCO2	-13	-28	1	-6	-9	i	-6	-2
N/C(=N\c1nc2c(c(=O)[nH]1)CCC2)Nc1cccc2ccccc12	-9	-49	4	-4	7	i	-1	0
NC(=O)CSCc1ccc(Br)cc1	-5	-37	1	1	-3	i	-4	-7
COc1ccc(-c2cc(C(=O)NCc3ccc(F)cc3)[nH]n2)c(C)c1	-39	8	-1	-4	/	/	/	/
Cc1cc(S(=O)(=O)Nc2ccc(C(=O)NCC3(N4CCCCC4)CCCCC3)cc2)ccc1F	14	/	1	2	-5	i	/	/
Cc1sc2c(c1C)C(O)=C(C(=O)Nc1ccccc1)S(=O)(=O)N2C	/	-3	0	2	3	i	4	13
O=C(COc1ccc(Cl)cc1Cl)Nc1c(-c2cccs2)nc2ccccn12	-25	-15	0	-1	-9	i	1	-7
Cc1ccc2nc(N3C(=O)C(O)=C(C(=O)c4ccc(C)o4)C3c3ccc(O)cc3)sc2c1 (stereo not given)	-10	/	-9	5	3	/	/	/
Cc1ccc(-c2cc(C(=O)N3CC(C)OC(C)C3)c3ccccc3n2)o1 (stereo not given)	2	-34	-2	1	-10	i	/	/
Cc1ccc(C(=O)NC(=S)Nc2ccc(N3CCN(C(=O)c4ccco4)CC3)cc2)cc1	-13	29	-4	-29	16	i	-6	6
C=CCOc1cccc(NC(=O)c2ccccc2SC)c1	/	-45	0	1	1	i	8	3
CCOc1cc(C)c(S(=O)(=O)NCCCn2ccnc2)cc1C	-6	-8	8	-12	12	i	9	6
Clc1ccc(Oc2cnc3ccccc3n2)cc1	-20	-11	-13	-11	-1	i	7	-2
Cc1cc(C(=O)OCC(=O)NCCCN2CCCC2=O)c2ccccc2n1	/	8	1	-2	-11	i	-4	-6
CCCc1cc(Nc2cccc(OCC)c2)n2ncnc2n1	-11	5	6	0	/	i	-3	-8
CC[C@]12c3[nH]c4cc(CCC(=O)N(C)C)ccc4c3CCN1C(=O)[C@@H](CC(=O)NCCCOC)C[C@@H]2C(=O)N1CCN(C(=O)C2CC2)CC1	-12	-15	2	4	/	/	/	/
Cc1ccc(S(=O)(=O)N(C)c2ccc(C(=O)N3CCN(Cc4ccc5c(c4)OCO5)CC3)cc2)cc1	-4	83*	5	-14	19	i	-3	1
COCC(=O)N1CCc2ccc(NC(=O)c3ccccc3Cl)cc2C1	-6	-8	-1	1	-17	i	-1	10
C=CCNC(=S)Nc1ccc(N2CCOCC2)c(S(=O)(=O)Nc2ccccc2Cl)c1	-20	24	1	-4	5	/	-1	-4
O=C(CNC(=O)c1ccco1)OCC(=O)c1ccc2ccccc2c1	-18	-170	0	2	-17	i	-1	3
COc1ccc(CNC(=S)Nc2ccc(-c3ccccc3)cc2)cc1	-23	4	4	-2	-2	i	3	5
C=CCOc1ccc(CN(C)CC(=O)Nc2ccccc2[N+](=O)[O-])cc1	25	14	-2	0	-8	i	-4	-6
CCOc1ccc(N(CC(=O)NC2CCCCC2)C(=O)CSc2nnc(COc3ccccc3)o2)cc1	-7	-78	-4	-1	-9	i	3	7
O=C(Cn1cncc1-c1ccc([N+](=O)[O-])cc1)Nc1cccc2ccccc12	-17	16	7	3	-7	i	6	-4
Cc1cc(C)cc(NC(=O)N2C3CCCC2CC(NC(=O)C2CC2)C3)c1 (stereo not given)	-12	-2	1	3	/	i	-4	15
Cc1cccc(C)c1NC(=O)C1CCN(S(C)(=O)=O)CC1	-5	2	6	5	-13	i	0	8
COc1cccc(CN(Cc2cccnc2)S(=O)(=O)c2ccc(-n3cnnn3)c(C)c2)c1	23	/	6	-2	3	i	-5	-2
COc1ccc(S(=O)(=O)N2CCc3ccccc32)cc1C(=O)N1CCOCC1	-9	4	-5	2	1	i	/	/
NC(=S)N/N=C1\CCOc2ccc(Cl)cc21	/	23	-4	-10	31	/	5	4
Cc1cc(NS(=O)(=O)c2ccc(Nc3nc(-c4sc(N)nc4C)cs3)cc2)no1	-18	/	-13	4	6	i	26	43
COc1ccc(-c2ccc(SCC(=O)N3CCN(c4ccccc4)CC3)nn2)cc1	/	-18	5	0	-7	i	-5	-4
COc1ccc(CN(C2CCCC2)S(=O)(=O)c2ccc(-n3cnnn3)cc2)cc1OC	-3	-8	2	-6	-2	i	-5	7
O=C(c1ccccc1Br)N1CCN(c2ccccn2)CC1	/	-4	1	2	-6	i	1	0
COc1ccc(-n2c(CNC(=O)COc3ccccc3)n[nH]c2=S)cc1	/	14	3	3	-11	i	0	-4
CCC(C)[C@H](NC(=O)Nc1ccc2c(c1)OCCO2)C(=O)O (stereo not given in full)	-19	/	0	6	-3	i	-6	-2
Cc1cc(C(=O)OCC(=O)Nc2cccc(S(=O)(=O)N(C)C)c2)c(C)o1	/	3	0	-3	-7	i	-3	3
Cc1cc(C)n(CC(=O)NC2CCCCC2)n1	/	-31	-1	3	-14	i	2	7
Cc1cc(CN(C)C(=O)CC2C(=O)NCCN2Cc2c(F)cccc2Cl)on1 (stereo not given)	-1	-1	1	0	-2	i	0	11
FC(F)(F)c1nnc(-c2ccccc2)nc1N1CCOCC1	-11	-187	1	0	-9	i	-6	5
O=C(OCn1nnc2ccccc2c1=O)c1ccc2c(=O)n3c(nc2c1)CCC3	-3	-13	-2	-1	-10	i	-4	6
O=C(NCCC1=CCCCC1)c1cnc2n(c1=O)CCS2	-1	-37	5	2	-6	i	-11	-5
CCOC(=O)Cc1csc(NC(=O)/C=C/c2ccccc2Cl)n1	-7	-16	0	-1	18	i	4	-5
O=C(O)CC1=C(O)C(=O)N(c2ccccc2)C1c1ccc(Cl)cc1 (stereo not given)	7	/	3	3	-9	i	-8	0
O=C(Oc1cccc(/C=N/Nc2nc(N3CCOCC3)nc(N3CCOCC3)n2)c1)c1ccco1	-13	?	1	-6	5	i	-9	-9
COc1cc(C(=O)Nc2nc(-c3ccc(Cl)cc3)c(C)s2)ccc1OCC(=O)Nc1ccc(F)cc1	/	-35	-6	-9	56	i	1	3
Cc1[nH]nc(SCC(=O)Nc2cccc(O)c2)c1[N+](=O)[O-]	/	2	1	6	-18	i	-5	8
Cc1cc([N+](=O)[O-])ccc1NC(=O)Nc1ccccc1F	/	15	-7	-23	24	/	2	-9
Cc1ccccc1NC(=O)Cn1cnc2c1c(=O)n(C)c(=O)n2C	-14	-7	2	-1	7	i	-2	-8
CCCCC(=O)N(C)c1c(CC)nc2c(OCc3ccc(Cl)cc3Cl)cccn12	-16	22	-13	-24	/	/	/	/
C[C@H](CO)N1C[C@H](C)[C@@H](CN(C)S(=O)(=O)c2cn(C)cn2)Oc2c(NS(=O)(=O)c3ccc(F)cc3)cccc2C1=O	-20	-10	-3	3	/	/	/	/
COC(=O)c1ccccc1S(=O)(=O)Nc1ccc2cn[nH]c2c1	-2	-122	-2	5	-14	i	-3	-9
COc1ccccc1N(C)S(=O)(=O)c1ccc(C(=O)Nc2ncc(C)s2)cc1	-24	3	-6	-10	1	/	/	/
CN(C)S(=O)(=O)c1cccc(NC(=O)c2ccccc2SCC(=O)N2CCCC2)c1	11	-24	2	2	/	/	/	/
